Screens from PubChem.
D2 PAM: Beta-Arrestin HTS for Positive Allosteric Modulators of the Human D2 Dopamine Receptor: Potentiators. D(2) dopamine receptor (Homo sapiens), P14416. DiscoveRx D2 beta-arrestin cells, luminescence, 90 min; 100% = 57 uM dopamine signal. potentiation, % (no concentration beside the values). 360,000 tested, 0.23% active. AID 624464, 2012; active = potentiation of 50% or more; inconclusive = 30% to 50%; inactive = 30% or less;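 also: compound concentration not given in the record; tested on top of an EC20 dose of dopamine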
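PathHunter beta-arrestin assay in DiscoveRx D2 cells. Compounds were added with an EC20 of dopamine (50 nM final) for 90 min at 37 deg C. Luminescence was read 1 h after detection reagent, with 57 uM dopamine as the EC100 control.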
ClpP mod: qHTS Assay for Activators of ClpP | ATP-dependent Clp protease proteolytic subunit (Bacillus subtilis (strain 168)), P80244 | Potency, µM (titrated, usually from 57.5 µM), for inactives: at the top dose activity change, negative = active | purified B. subtilis ClpP, FRET peptide cleavage, 20 min | 340,000 tested, 1.9% active; active = well fitted falling curve with a large enough effect; inconclusive = small, poorly fitted or top-dose-only effect; inactive = no such curve, though single readings can be large or run the other way; also: potency is read from the fitted curve at half-maximal effect; the source files actives as falling curves though it sought activators and does not explain the sign; nearly all actives have a fitted effect of over 65% in size; many hits overshoot -100%
Target sequence (P80244 whole entry, looked up): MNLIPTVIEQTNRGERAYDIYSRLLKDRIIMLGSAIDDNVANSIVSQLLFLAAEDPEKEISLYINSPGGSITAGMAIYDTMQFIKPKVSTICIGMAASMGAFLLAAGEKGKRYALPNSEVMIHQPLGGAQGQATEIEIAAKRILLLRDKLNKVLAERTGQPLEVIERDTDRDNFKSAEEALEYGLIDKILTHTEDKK
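FRET quenching reversal measured ClpP activation: 10 microg/mL B. subtilis ClpP at pH 8 with the FRET-FV decapeptide, read at 430 nm after 320 nm excitation. The 20-min minus 0-min signal was scaled between DMSO/no-enzyme wells and ADEP (5.8 microM final).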
gsp antagonist: qHTS for Antagonists of gsp, the Etiologic Mutation Responsible for Fibrous Dysplasia/McCune-Albright Syndrome: qHTS. gsp-mutant cells, cAMP HTRF, 30 min; control for the full effect not named in the record. Potency, µM (highest dose often 76.9 µM), inactives show at the top dose activity change, negative = inhibition, most hits filed as inhibitors. 340,000 tested, 0.4% active. AID 624288, 2012; active = falling curve of any shape with a large fitted effect; inconclusive = falling curve, mostly with a smaller effect; inactive = flat or rising curve; cell line not stated here;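 also: intracellular cAMP measured with PDE inhibitor Ro 20-1724 present during compound exposure; potency is read from the fitted curve at half-maximal effect; % is scaled to controls: 0 for no effect and ±100 for the full control effect; nearly all actives have a fitted effect of over 65% in size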
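HTRF cAMP read-out (cAMP-d2 plus anti-cAMP antibody-K in lysis buffer, 30 min RT). Before lysis, cells are exposed to compounds with […] for 30 min at 37C in DPBS containing Ca/Mg, BSA and Tween 20.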
Menin-MLL FL inh: qHTS Assay for Inhibitors Targeting the Menin-MLL Interaction in MLL Related Leukemias: Competition With Fluorescein Labeled MLL-derived Peptide; Fluorescence polarization, fluorescein-MLL peptide displacement from menin; FP activity change, % at 61.4 µM; 290,000 tested, under 10 active; AID 1766, 2009; inconclusive = falling polarisation curve, or a change in total fluorescence; inactive = total fluorescence flat and polarisation flat or rising; no compound was filed as active; the % refers to the polarisation; negative = inhibition;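 also: % of control where 0% means no effect; inhibitors lower the polarisation; unlabelled MLL peptide was the positive control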
TRPV1 potentiator: HTS Assay for Compounds that Act as Potentiators of the Vanilloid Receptor 1 | 320,000 tested, 0.02% active | TRPV1-expressing cells, Fluo-8 calcium influx, capsaicin EC20 potentiation; host cell line not named in the record; control for the full effect not named in the record | potentiation, % at 8.33 µM | AID 540277, 2011 | Transient receptor potential cation channel subfamily V member 1 (Homo sapiens), Q8NER1; active means potentiation above 80%; inconclusive means 30% to 80%; inactive means below 30%; also: 0% is about no effect
Target sequence (Q8NER1 whole entry, looked up): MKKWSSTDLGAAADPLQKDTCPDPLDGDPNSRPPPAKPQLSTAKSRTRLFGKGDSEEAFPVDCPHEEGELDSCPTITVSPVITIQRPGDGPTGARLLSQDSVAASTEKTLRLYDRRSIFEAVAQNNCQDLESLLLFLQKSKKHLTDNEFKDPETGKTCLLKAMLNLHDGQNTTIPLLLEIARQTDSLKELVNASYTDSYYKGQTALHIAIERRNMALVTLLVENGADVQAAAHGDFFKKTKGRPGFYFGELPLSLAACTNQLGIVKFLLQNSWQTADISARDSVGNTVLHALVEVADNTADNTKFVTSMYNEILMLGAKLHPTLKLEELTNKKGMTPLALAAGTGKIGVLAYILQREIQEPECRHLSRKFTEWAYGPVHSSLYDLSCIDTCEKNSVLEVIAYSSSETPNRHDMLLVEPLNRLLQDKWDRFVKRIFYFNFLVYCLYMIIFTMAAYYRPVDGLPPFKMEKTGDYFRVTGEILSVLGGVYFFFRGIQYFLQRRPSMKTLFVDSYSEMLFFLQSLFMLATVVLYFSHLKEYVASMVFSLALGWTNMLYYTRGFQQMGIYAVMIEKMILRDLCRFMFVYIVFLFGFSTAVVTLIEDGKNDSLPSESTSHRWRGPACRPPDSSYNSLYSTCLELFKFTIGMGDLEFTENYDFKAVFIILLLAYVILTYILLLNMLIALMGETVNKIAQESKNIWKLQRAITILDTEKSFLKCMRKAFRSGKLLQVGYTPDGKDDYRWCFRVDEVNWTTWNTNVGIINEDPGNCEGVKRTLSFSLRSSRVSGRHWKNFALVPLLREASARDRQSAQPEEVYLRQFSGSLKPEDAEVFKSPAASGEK
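Cells expressing TRPV1 were dye-loaded with Fluo-8 and read kinetically: 10 s baseline, 3 min after compound (agonist portion), then 2 min after EC20 capsaicin (allosteric enhancer portion). Calcium-bound dye fluorescence at 480/520 nm.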
Sfp inh: qHTS Assay for Inhibitors of Bacillus subtilis Sfp phosphopantetheinyl transferase (PPTase); Biochemical Sfp PPTase activity, qHTS; Potency, µM, for inactives: max response, negative = inhibition, most hits filed as inhibitors; 4'-phosphopantetheinyl transferase ffp (Bacillus subtilis), Q9F4F7; 310,000 tested, 3.5% active; active = well fitted inhibition curve with a large enough effect; inconclusive = small, poorly fitted or top-dose-only effect, or another doubt; inactive = no such curve, though single readings can be large or run the other way;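 also: the enzyme is Sfp with the accession as filed and its product quenches rhodamine fluorescence; potency is read from the fitted curve at half-maximal effect; 0% = enzyme reaction without inhibitor and -100% = no enzyme wells; top concentration of the series not given in the record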
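Sfp 15 nM + cpd, 15 min RT; start w/ rhodamine-CoA 5 uM, BHQ-2-YbbR 12.5 uM (final); 50 mM Hepes pH 7.6, 10 mM MgCl2, 0.01% NP-40, 0.01% BSA; read 525/598 nm at 0 and 30 min.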
gsp agonist: qHTS for Agonist of gsp, the Etiologic Mutation Responsible for Fibrous Dysplasia/McCune-Albright Syndrome: qHTS | gsp mutant cells, cAMP HTRF, 30 min; control for the full effect not named in the record | Potency, µM (highest dose often 76.9 µM), for the others: at the highest dose activation (cAMP increase), actives largely listed as activators | 340,000 tested, 0.13% active | AID 624287, 2012; active = well fitted activation curve with a large enough effect; inconclusive = small, poorly fitted or top-dose-only effect, or another doubt; inactive = no such curve, though single readings can be large or run the other way; cell line not stated here;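 also: phosphodiesterase inhibitor Ro 20-1724 added with compounds to block cAMP breakdown; potency is read from the fitted curve at half-maximal effect; nearly all actives have a fitted effect of over 60% in size; about a fifth of the inactives were tested at one dose only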
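Cells stably selected in G418 were plated at 2000/well, grown 16-24 hr, then given compounds in DMSO with the PDE inhibitor […] (300 uM solution added) for 30 min at 37C; cAMP was read by HTRF.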
* marks the source's active call; other numbers are inactive results; ? = inconclusive; / = not tested or not shown; & = joins results of further samples; [ ] = remark or other dose.

structure	D2 PAM	ClpP mod	gsp antagonist	Menin-MLL FL inh	TRPV1 potentiator	Sfp inh	gsp agonist
COc1cc(NS(=O)(=O)c2ccc(Nc3nc(-c4cccc([N+](=O)[O-])c4)cs3)cc2)nc(OC)n1	-2	-1.0%	?	0.5	8	3%	12%
Cc1cc(C(=O)NN=C2CC(=O)CC(C)(C)C2)c(C)o1	1	-0.2%	4%	/	/	/	-1%[15.4 µM]
CCN(CC)C(=O)CSc1nc(-c2cccs2)cc(-c2cccs2)c1C#N	-6	25µM*	?	?	-9	7.9µM*	3%
Cc1ccccc1CNC(=O)Cc1cccs1	-3	1.0%	8%	-1.2	-6	3%	-1%
COc1ccc(CN2CCNC(=O)C2CC(=O)O)c(OC)c1 (stereo unspecified)	-5	-2.1%	11%	1.9	9	4%	3%
CCOc1ccc(C2c3[nH]c4ccccc4c3CCN2CCCn2cccn2)cc1 (stereo unspecified)	4	/	-12%	-0.2	-12	2%	22%[15.4 µM]
COc1ccc(/C=N/Nc2cc(C)nc(N3CCOCC3)n2)cc1	-2	/	-6%	-2.6	-16	1%	11%[15.4 µM]
Cc1nc2ccc(S(=O)(=O)Nc3cc(-c4nc5cccnc5s4)ccc3C)cc2s1	-5	-18%	10%	7.4	6	-7%	39%
CC(C)CN(C(=O)COC(=O)c1ccccc1Sc1ccccc1C#N)C1CCS(=O)(=O)C1 (stereo unspecified)	-5	-4.4%	-1%	3.0	6	4%	0%
CC(C)C1(C2CCCC2)NC(=O)NC1=O (stereo unspecified)	-2	/	12%	/	/	/	-22%
CCOC(=O)c1c(-c2ccc(-c3ccccc3)cc2)csc1NC(=O)C1C2CCC(O2)C1C(=O)O (stereo unspecified)	2	-24%	-24%	4.2	-5	50µM*	15%
COc1ccc(S(=O)(=O)N2CCN(C(=O)Cc3cccs3)CC2)cc1	-5	0.6%	-16%	2.3	4	12%	-50%[inhibitor]
O=C(OCC(=O)N1CCc2ccccc2C1)c1cccnc1Cl	-4	0.9%	6%	-2.1	21	13%	5%[15.4 µM]
O=C(/C=C/Nc1ccc(F)cc1)c1ccc(Oc2ncccn2)cc1	-8	0.4%	7%	3.5	11	6%	23%
O=c1oc2ccccc2c2c1C(c1ccc(Cl)cc1)Nc1ccc3ccccc3c1-2 (stereo unspecified)	-10	?	2%	6.1	19	-11%	-44%
Cc1ccc(NCC(=O)c2ccc(C)cc2)cc1	-79	-0.3%	-5%	6.8	-13	3%	1%
Cc1ccccc1/C=N/Nc1ncnc2nc[nH]c12	-12	2.4%	10%	0.1	8	-5%	-33%[inhibitor]
O=C(CSc1nc(C(F)(F)F)cc(=O)[nH]1)N1CCC(Cc2ccccc2)CC1	-5	/	-19%	/	-6	/	-21%[15.4 µM]
O=C(CN1CCN(C(c2ccccc2)c2ccccc2)CC1)NC(=O)NCc1ccco1	-12	-2.1%	9%	-0.2	-23	-9%	8%
CC(=O)SC(C)CC(=O)Nc1ccccc1 (stereo unspecified)	-20	0.7%	-7%	2.2	-24	-4%	?
O=C(COC(=O)c1ccco1)Nc1ccc([N+](=O)[O-])cc1Cl	0	2.5%	0%	/	10	/	4%
CCN(CC1CCCO1)C(=O)CCc1nnc(Cc2ccc3c(c2)OCO3)o1 (stereo unspecified)	-2	/	-7%	-5.4	-1	15%	36%
Cc1c(CNC2CCC(C)CC2)c(C(=O)O)c(C)n1Cc1ccccc1 (stereo unspecified)	-13	-6.2%	3%	3.2	?	-1%	0%
CCOc1ccc(NC(=O)CC2C(=O)N(c3ccccc3)C(=O)N2CCc2cccs2)cc1 (stereo unspecified)	1	0.0%&-2.2%	-15%	-0.1	1	-4%	0%
CCCOC(=O)C1=C(C)NC2=C(C(=O)CC(C)(C)C2)C1c1ccc(N(C)C)cc1 (stereo unspecified)	7	-4.6%	5%	4.8	-20	-1%	-10%
Cc1cccc(N2CCN(C(=O)C3CCN(S(=O)(=O)c4cccc5nsnc45)CC3)CC2C)c1 (stereo unspecified)	-1	1.2%	35µM*	-2.9	-12	-7%	17%
Cc1cc2oc3c(c(=O)c2cc1C)C(c1ccc(F)cc1)N(CCCN1CCOCC1)C3=O (stereo unspecified)	-3	-12%	4%	1.2	-18	-8%	-28%
O=C(Cc1cccs1)Nc1ccccc1NC(=O)Cc1cccs1	-5	0.6%	12%	1.3	13	11%	0%
Cc1ccccc1OCCc1c(C)[nH]c(=S)[nH]c1=O	2	/	26%	-2.3	2	-16%	11%[15.4 µM]
Cc1ccc(C(C)C)c(OCCN2C(=O)NC(C)(C)C2=O)c1	-14	-0.4%	7%	2.4	-4	23%	?
COc1ccc(C(=O)C2CCCN(C(=O)c3ccc(C(C)=O)s3)C2)c(C)c1 (stereo unspecified)	-6	0.5%	0%	-6.6	-17	1%	-4%
O=C(CN1CCN(c2ccccn2)CC1)NCCc1ccccc1	-4	-0.4%	6%	-0.5	-16	-1%	18%
CON(C)C(=O)CC(CNC(=O)OC(C)(C)C)c1ccc(Cl)cc1 (stereo unspecified)	-6	-2.5%	3%	/	/	/	-13%
COc1ccc(C(=O)N2CCC(n3nccc3NC(=O)C3CC3)CC2)c(OC)c1OC	-4	-0.6%	8%	-1.8	-1	14%	4%
O=C(Nc1ccc(N2CCOCC2)cc1)C1(c2ccc(Cl)cc2)CCC1	-6	/	-1%	-3.3	-15	12%	-28%[15.4 µM]
CCc1nnc(NC(=O)CSc2nnc(CSc3nc(C)cc(C)n3)o2)s1	7	1.1%	-10%	-2.3	21	50µM*	3%
Cn1c(SCC(=O)N2CCOCC2)nnc1-c1ccncc1	-3	/	1%	4.0	0	14%	10%
O=C(NCc1ccc2c(c1)OCO2)Nc1cccc2ccccc12	-7	?	5%	5.0	-16	?	-20%
CCOC(=O)N(C)OC(=O)Nc1ccc(Cl)c(Cl)c1	13	1.3%	-12%	0.0	?	11%	-3%
C=C(C)CNC(=S)N/N=C/c1ccc([N+](=O)[O-])cc1	3	0.5%	10%	-1.7	10	-9%	-4%
COc1cccc(CNc2ccc([N+](=O)[O-])cc2Cl)c1O	14	-2.1%	-16%	-0.5	?	?	?
Nc1nc2n(n1)C(c1cccc(Br)c1)CC(c1ccc(F)cc1)N2 (stereo unspecified)	-1	0.5%	-1%	1.1	-7	8%	6%
Cc1cc(NC(=O)c2c(Cl)cccc2Cl)no1	-5	-1.0%	8%	1.7	7	2%	-23%
CCOC(=O)c1c(-c2ccc(C)cc2)csc1NC1=NS(=O)(=O)c2ccccc21	2	-8.7%	6%	5.1	10	18%	-2%
COC(=O)c1cc(S(=O)(=O)NCc2ccc(Br)cc2)c[nH]1	-9	-2.7%	6%	/	26	10%	1%
O=C(NC1CCCC1)c1cccc(Cl)c1	-4	/	5%	2.9	-11	9%	-10%[15.4 µM]
Cc1ccc(S(=O)(=O)Nc2cc(C(C(=O)OC(C)C)C(=O)C(F)(F)F)c(O)c3ccccc23)c(C)c1 (stereo unspecified)	-8	0.3%	-21%	-0.6	5	56µM*	-2%[15.4 µM]
O=C(COC(=O)c1ccccc1Nc1ccccc1)NCc1ccccc1	-1	?	-10%	2.3	16	10%	-7%
CC(=O)N1CC(C)Oc2ccc(S(=O)(=O)Nc3ccc(Cl)cn3)cc21 (stereo unspecified)	-10	-4.1%	?	3.5	-5	29%	0%
Cc1cc(C)c(OCCCCn2cnc3ccccc3c2=O)c(C)c1	-8	0.8%	16%	0.5	-1	-11%	-1%
COc1ccc(/C=C/C(=O)O)cc1S(=O)(=O)Nc1ccc2c(c1)OCO2	-6	-1.2%	11%	1.9	5	18%	24%
CCCNCc1cc(OC)c(OCCC)cc1Cl	-12	-0.3%	7%	0.6	7	-5%	-29%
Cc1cc(=O)[nH]c(N/N=C/c2c(O)n(-c3ccccc3)c(=O)c3ccccc23)n1	-5	-1.9%	-6%	?	17	-1%	16%
CNC(=O)NC(=O)C(C)OC(=O)CCCc1nc2ccccc2s1 (stereo unspecified)	0	/	8%	2.2	22	1%	-20%[15.4 µM]
COc1cc(NC(=O)CNC(c2ccccc2)c2ccccc2)cc(OC)c1OC	-11	-13%	-12%	4.0	6	12%	-14%[15.4 µM]
C/C(Cc1ccccc1)=N\NC(=O)CNC(=O)c1ccc(F)cc1	-7	-2.1%	8%	-3.7	-3	-3%	1%
C=CCn1c(-c2ccc3ncccc3c2)n[nH]c1=S	-5	-0.8%	-7%	4.5	?	-10%	11%
COc1ccc(C(=O)Nc2cccc(-c3csc(C)n3)c2)cc1S(=O)(=O)N1CCCC1	13	-2.9%	?	/	6	/	2%
O=C(O)CC1CCS(=O)(=O)C1 (stereo unspecified)	-6	-1.4%	17%	-1.9	-8	15%	-19%
COc1ccc(C(=O)NCCc2ccc(F)cc2)cc1OC	-65	-0.3%	2%	3.3	13	2%	16%[15.4 µM]
Cc1noc(C)c1C(=O)N1CC(C)OC(C)C1 (stereo unspecified)	-3	-2.9%	8%	1.5	6	6%	0%
